Assay outcomes deposited in PubChem BioAssay by several laboratories.
E coli growth – E. coli growth inhibition, primary screen, OD600 | Escherichia coli growth, 23 h; stronger effect = lower value | OD600 absorbance (concentration not given with the values) | 330,000 compounds, 0.21% hits | AID 1053175, 2014;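 active = OD600 absorbance below the run mean of sample wells minus 3.6 SD, in any replicate, cut at about 0.56 in these data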;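 note: stock transfer was 300 nL into about 60 µL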
UCH37 DUB inh – inhibitors of human UCH37 deubiquitinase, primary screen, biochemical, Ub-AMC cleavage, fluorescence | purified proteasome/UCH37 | inhibition, % (test concentration not listed) | 330,000 compounds, 0.33% hits;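 active = mean of two replicates above 20%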;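 note: 0% = compound-free wells with enzyme and 100% = wells lacking proteasome; stock transfer was 100 nL into about 20 µL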
Target sequence (Q9Y5K5 whole entry, looked up): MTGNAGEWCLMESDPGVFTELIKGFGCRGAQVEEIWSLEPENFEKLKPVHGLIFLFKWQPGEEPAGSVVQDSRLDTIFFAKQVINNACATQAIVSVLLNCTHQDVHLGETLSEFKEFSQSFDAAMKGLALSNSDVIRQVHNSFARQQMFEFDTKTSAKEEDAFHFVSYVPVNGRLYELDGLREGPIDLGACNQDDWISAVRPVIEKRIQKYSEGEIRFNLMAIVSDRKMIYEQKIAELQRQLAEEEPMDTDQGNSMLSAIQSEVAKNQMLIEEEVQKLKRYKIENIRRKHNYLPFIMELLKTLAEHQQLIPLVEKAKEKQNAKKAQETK
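Reagent: Ub-AMC substrate; assay system: Proteasome-associated human UCH37 deubiquitinase; controls: no-proteasome and no-compound wells; read-out: % inhibition of Ub-AMC cleavage fluorescence; timing: 30 min preincubation with enzyme, 25 min cleavage at room temperature; signal: AMC fluorescence from Ub-AMC cleavage, excitation 355 nm, emission 460 nm; buffer or medium: Tris-HCl pH 7.4 plus ovalbumin, ATP-MgCl2, DTT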
Vif TR-FRET – inhibitors of Vif binding to APOBEC3G peptide, primary screen, biochemical, TR-FRET, GST-Vif 1-94, biotin-A3G peptide, dose response retest (AID 1117319); TR-FRET GST-Vif / biotin-A3G peptide binding; higher % means a stronger effect; test concentration not given here; strong numbers were not always called active; inhibition, %; hits with a dose series show IC50 in µM; 260,000 compounds, 0.57% hits;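 active = above the screen mean plus three standard deviations and confirmed in dose response; inconclusive = results disagree or hit not tested in dose response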;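 note: Vif residues 1-94 fused to GST binding biotinylated APOBEC3G peptide 110-148; 0% = full assay without inhibitor and 100% = GST in place of GST-Vif; retest series ran down from 100 µM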
FGF22 binding – binders of human FGF22 protein, primary screen, FGF22 synaptogenesis inhibitor project, biophysical, thermal shift, single point; Fibroblast growth factor 22 (Homo sapiens), Q9HCT0; recombinant FGF22 thermal shift, SYPRO orange fluorescence; percent of sucrose octasulfate shift, DMSO zero; calls only at 9.99 µM; 340,000 compounds, 1.5% hits; AID 651658, 2012;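 active = melting point raised past a set limit in the mean and every replicate; inconclusive = no clear call; three in four hits are not shown here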
Target sequence (Q9HCT0 whole entry, looked up): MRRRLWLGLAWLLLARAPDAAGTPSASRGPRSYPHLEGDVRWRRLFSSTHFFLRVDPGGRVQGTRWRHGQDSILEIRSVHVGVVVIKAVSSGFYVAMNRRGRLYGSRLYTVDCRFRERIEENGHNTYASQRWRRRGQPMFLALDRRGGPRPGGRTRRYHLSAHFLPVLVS
HNF4A DNA FP – change in binding of human HNF4A to DNA, primary screen, biochemical, fluorescence polarization, FITC-DNA. 360,000 compounds, 0.3% hits. AID 1224865, 2016. Hepatocyte nuclear factor 4-alpha (Homo sapiens), P41235. 1 h. activity change, % at 10 µM; in the data active = activity change above about 30%, passing the limit was not always enough;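 note: controls were the assay level and a saturating level of protein; the project sought stronger binding though the title names inhibitors; some compounds called inactive have numbers as strong as hits; positive values seem to mean higher polarization but the record does not say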
Target sequence (P41235 whole entry, looked up): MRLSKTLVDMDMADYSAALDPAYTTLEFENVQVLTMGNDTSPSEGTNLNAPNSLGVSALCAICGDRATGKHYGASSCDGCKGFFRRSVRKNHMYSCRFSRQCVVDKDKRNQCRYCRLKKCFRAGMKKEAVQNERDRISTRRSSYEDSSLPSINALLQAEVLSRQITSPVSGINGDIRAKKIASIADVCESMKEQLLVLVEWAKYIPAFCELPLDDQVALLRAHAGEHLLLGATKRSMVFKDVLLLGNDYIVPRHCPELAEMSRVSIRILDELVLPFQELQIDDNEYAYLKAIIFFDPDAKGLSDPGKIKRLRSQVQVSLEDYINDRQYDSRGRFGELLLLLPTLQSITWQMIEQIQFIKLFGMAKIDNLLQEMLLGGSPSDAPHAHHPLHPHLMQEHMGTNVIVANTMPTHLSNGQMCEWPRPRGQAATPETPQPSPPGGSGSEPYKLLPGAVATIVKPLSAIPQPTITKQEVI
RanGTP-Imp inh – inhibitors of RanGTP-importin-beta interaction, primary screen, biochemical, FRET, CFP-Ran, YFP-importin-beta, homogeneous; 300,000 compounds, 1.1% hits; cell-free CFP-Ran/YFP-importin-beta FRET ratio; inhibition, % (concentration not given with the values); Ran GTPase (GTP-bound) - importin-beta complex; AID 2216, 2009;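 active = most replicates above 15%; inconclusive = exactly half above 15%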;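 note: 0% = DMSO wells and 100% = Ran loaded with GDP instead of GTP; wells of about 40 µL received 100 nL stock; the first replicate is given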
AF4-AF9 inh – inhibitors of AF4 peptide binding to AF9, primary screen, biochemical, AlphaScreen, biotin-AF4 peptide, FLAG-AF9, single point | 350,000 compounds, 0.47% hits | AID 651704, 2012 | Protein AF-9 (Homo sapiens), P42568 | inhibition, % at 10 µM;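 active = every replicate reaching a set inhibition limit, whatever the replicate mean, cut at about 25% in these data; inconclusive = mean inhibition reaches that limit but some replicates miss it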;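 note: 0% = plate neutral control median and 100% = total signal loss; the record names both 10 and 1 µM as test concentration; the first replicate is given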
Starred values were filed as active, the others as inactive; i = inactive; ? = inconclusive; . = no result given; & = joins results of further samples. Some of the compounds tested (hit frequency here may not be typical).

Values in the order: E coli growth	UCH37 DUB inh	Vif TR-FRET	FGF22 binding	HNF4A DNA FP	RanGTP-Imp inh	AF4-AF9 inh
- Cn1c(/N=C(\N)c2ccccc2)nc2ccccc21
→ .	.	-6%	i	-0.2	.	-0.4
- Cc1ccc(Oc2ccc(Cl)cc2NC(=O)c2cnccn2)cc1
→ 0.72	-3.6	0%	.	-8.2	3.6	.
- O=C(Nc1ccccc1[N+](=O)[O-])C1COc2ccccc2O1 (stereo not given)
→ 0.64	1.7	.	i	3.4	0.2	-0.7
- CC(C)COC(=O)c1ccc(N2C(=O)c3ccccc3C2=O)cc1
→ 0.67	-2.8	20%	i	-3.0	-0.1	-1.0
- CNC[C@H]1Oc2ccc(NC(=O)C3CCCCC3)cc2CC(=O)N([C@H](C)CO)C[C@@H]1C
→ .	1.0	.	i	31	.	2.4&-3.2
- CC(=O)c1cc(CN2CCN(C3CCCCC3)C(CCO)C2)cs1 (stereo not given)
→ 0.71	4.2	.	i	1.3	6.3	-2.2
- CCO[C@H]1OC(C(=O)N2CCN(C)CC2)=C[C@@H](c2ccc3c(c2)OCO3)[C@@H]1CCCO
→ .	3.8	-3%	i	-2.6	-2.6	-6.6
- COc1cccc(C2=CC(=O)C[C@H](c3ccc(Cl)cc3)C2)c1OC
→ .	1.3	.	i	2.7	.	4.0
- Cc1ccc(S(=O)(=O)/N=C2/NC(=O)/C(=C/c3ccncc3)S2)cc1
→ 0.71	4.5	15%	.	.	-3.1	.
- Cc1ccc(C(=O)NNC(=O)CSc2nnc(CNc3ccc(F)cc3)n2C)cc1
→ 0.66	3.5	.	.	.	?	0.0
- COc1cc(C(=S)N2CCOCC2)ccc1OC(=O)Cc1ccc(F)cc1
→ 0.7	3.7	-1%	.	-1.7	1.5	.
- COc1ccc(Cl)cc1NC(=O)CSc1sc2c(O)cc(=O)[nH]c2c1C#N
→ 0.7	6.6	-2%	i	-8.0	-1.9	0.0
- O=C(NC1CC1)c1ccc2c(c1)N(Cc1ccc(Cl)cc1)CCS2
→ .	.	.	i	6.3	3.5	-1.5
- Fc1ccc(NC(=S)Nc2cccc3cnccc23)cc1
→ 0.68	1.1	3%	i	2.4	1.4	1.9
- N#C/C(N=Nc1ccccc1O)=N\Nc1ccccc1O
→ .	0.1	.	i	4.8	0.6	34*
- CCC(C)N(C(=O)Cn1nnc2ccccc21)C(C(=O)NCc1ccco1)c1cccc(OC)c1 (stereo not given)
→ 0.76	-0.6	4%&-3%	.	1.4	-2.7	.
- CC1(C(=O)NS(=O)(=O)C2CC2)CCN(C(=O)c2cc(F)cc(F)c2)C1 (stereo not given)
→ .	.	.	i	0.3	.	-7.5
- O=C(C[C@H]1C/C=C\CCCCC(=O)OC[C@H]2CCCN2C1=O)N[C@H](CO)Cc1ccccc1
→ .	-2.5	.	i	-0.8	.	0.4
- CC(=O)Nc1ccc(NC(=O)CCCc2c[nH]c3ccccc23)cc1
→ 0.68	3.0	-11%	i	0.4	-3.4	0.0
- COc1ccccc1-c1nc(C#N)c(N2CCCCCC2)o1
→ 0.72	-460	-5%	.	0.8	-0.6	.
- O=C(CCCn1cc([N+](=O)[O-])cn1)Nc1cccnc1
→ 0.71	3.3	-1%	i	-0.6	-1.3	-1.3
- CCOC(=O)C1CCCN(Cc2ccc(OCC)cc2)C1 (stereo not given)
→ 0.71	3.8	2%	.	4.2	4.9	.
- O=C(NC1CC1)C(Cc1ccccc1)NS(=O)(=O)c1ccccc1F (stereo not given)
→ 0.71	3.5	1%	i	0.4	2.5	-3.6
- Cc1ccc(C(=O)CC(C(=O)O)n2ccc(C)n2)cc1 (stereo not given)
→ 0.76	4.4	0%	.	0.9	-1.0	.
- O=C(Nc1ccc(OCc2ccccc2)cc1)c1cccc([N+](=O)[O-])c1
→ 0.71	0.8	-6%	i	3.2	-3.3	2.1
- COCC(C)n1c(SCc2ccc(C(=O)OC)cc2)nc2ccccc2c1=O (stereo not given)
→ 0.71	2.9	.	i	0.7	?	-4.7
- Cn1c(CN2CCOCC2)nnc1SCC(=O)Nc1cccc(C(F)(F)F)c1
→ 0.69	4.0	.	.	-1.6	0.9	2.4
- O=C(NCc1ccccc1)c1onc(CSc2ccc(F)cc2)c1C(=O)NCCCN1CCOCC1
→ 0.79	3.9	-4%	i	-1.1	?	0.1
- Cn1c(N)c(C(=O)COC(=O)c2ccccn2)c(=O)n(C)c1=O
→ 0.68	1.1	-5%	i	-2.7	5.8	-4.2
- NC(=O)C[n+]1cccc(/C=N/O)c1
→ .	.	.	i	-1.4	1.9	-1.2
- CC(=O)c1cccc(-c2ccnc3c2CC(C(=O)Nc2ccc(Cl)c(C(F)(F)F)c2)O3)c1 (stereo not given)
→ .	.	.	i	-1.2	.	2.3
- O=C(CCC(=O)NNC(=O)c1ccccc1[N+](=O)[O-])NCc1ccccc1
→ 0.67	1.3	2%	i	0.8	1.4	-2.5
- CC1=CC(C)(C)NC(=S)N1c1cccc2ccccc12
→ 0.75	0.0	27%	.	1.9	3.3	.
- O=C(CC1C(=O)NCCN1Cc1cccc(Oc2ccccc2)c1)NCCn1cccn1 (stereo not given)
→ 0.68	0.4	.	i	-1.6	-0.3	1.4
- CC1(C)CC(=O)N(Cc2ccccc2)C(=O)C1
→ 0.69	0.9	6%	i	1.0	?	-1.7
- CCOC(=O)CSc1nnc(CNC(=O)c2cccs2)n1-c1cc(OC)ccc1OC
→ 0.73	3.6	3%	.	-0.9	-1.3	.
- O=C(CCCN1C(=O)c2ccccc2C1=O)Nc1nccs1
→ 0.79	2.2	0%	.	1.4	2.0	.
- O=C1N=C(N2CCOCC2)S/C1=C/c1ccc(-c2ccccc2Cl)o1
→ 0.7	-5.6	8%	.	-41	?	.
- Cc1cc(C)nc(NS(=O)(=O)c2ccc(NC(=S)NC(=O)c3ccco3)cc2)n1
→ 0.68	3.5	5%	i	2.0	-3.5	-12
- CCC(C)NC(=O)CNC(=O)Cn1c(C)cc2ccccc2c1=O (stereo not given)
→ 0.68	-10	0%	.	0.6	?	.
- COc1ccccc1S(=O)(=O)N1CCC(C(=O)O)(c2ccccc2)CC1
→ 0.69	4.9	.	i	6.3	8.8	-1.4
- O=C(NNC(=S)NCc1ccco1)c1cccs1
→ 0.68	4.3	.	i	-4.1	0.7	-4.2
- CC1=CCn2c(=O)c3ccccc3c(=O)n2C1
→ 0.66	0.9	-8%	i	3.2	0.9	-3.9
- Cc1ccc(C(C(=O)NCc2ccco2)N(CCc2ccccc2)C(=O)Cn2nnc3ccccc32)o1 (stereo not given)
→ 0.73	2.2	24%&-4%	.	2.4	.	.
- O=C(O)c1ccccc1C(=O)Nc1ccc(Oc2cccc3ccccc23)cc1
→ 0.6	-1.3	7%	.	-1.9	4.2	1.1
- c1ccc2c(c1)N1CCCN=C1N2CCN1CCCCC1
→ 0.7	2.9	29%	i	3.4	-0.8	1.1
- CCOc1ccccc1NC(=O)Nc1cccc(NC(C)=O)c1
→ 0.72	1.5	?	i	3.4	-1.7	0.4
- O=C(CCN1C(=O)c2ccccc2C1=O)Nc1ccc2c(c1)OCCO2
→ 0.62	2.0	-4%	.	3.1	5.8	.
- C[C@@H](c1ccccc1)N1C[C@H](COCc2ccccc2)Oc2cc(N3CC[C@@H](O)C3)ccc2S1(=O)=O
→ .	.	.	i	-2.5	.	-1.0
- CCN(Cc1cc2cc(OC)ccc2[nH]c1=O)C(=O)Cc1ccc(OC)cc1
→ 0.75	-65	-1%	.	1.0	0.0	.

Given as tab-separated lines: part of the list above.
Molecule	E coli growth	UCH37 DUB inh	Vif TR-FRET	FGF22 binding	HNF4A DNA FP	RanGTP-Imp inh	AF4-AF9 inh
O=C(Nc1ccccc1[N+](=O)[O-])C1COc2ccccc2O1 (stereo not given)	0.64	1.7	.	i	3.4	0.2	-0.7
O=C(CC1C(=O)NCCN1Cc1cccc(Oc2ccccc2)c1)NCCn1cccn1 (stereo not given)	0.68	0.4	.	i	-1.6	-0.3	1.4

Carrying on:
Values in the order: E coli growth	UCH37 DUB inh	Vif TR-FRET	FGF22 binding	HNF4A DNA FP	RanGTP-Imp inh	AF4-AF9 inh
- C[C@H]1CN([C@@H](C)CO)C(=O)CCCn2cc(nn2)CO[C@@H]1CN(C)S(=O)(=O)c1ccc2ccccc2c1
→ .	.	2%	i	2.3	.	1.9&-2.3
- COc1cccc(NCc2ccc([N+](=O)[O-])s2)c1
→ 0.71	6.1	.	i	1.0	-0.6	-2.9
- COc1cc(/C=N/Nc2snc(SC)c2C#N)ccc1O
→ .	.	20%	.	0.2	10	.
- COc1ccc(C(=O)NCC(=O)NCC2(N(C)C)CCCCC2)cc1OC
→ 0.68	-0.5	3%	.	-0.5	-1.5	.
- Nn1cnnc1N/N=C/c1ccc(F)cc1
→ .	.	4%	i	0.8	2.5	?
- Cc1ccc(C)c(NC(=O)CN(C)C(=O)Cc2ccccc2)c1
→ .	-2.0	13%	.	-2.6	-2.5	.
- CC(=O)Nc1n[nH]c(S(=O)(=O)Cc2ccc(Cl)cc2Cl)n1
→ 0.75	-2.2	.	.	0.4	0.0	.
- O=C(NNC(=O)c1nc2ccccc2[nH]1)OCc1ccccc1
→ 0.62	3.1	.	i	3.9	.	0.6
- CCc1ccc(-c2nnn(CCC(=O)OC)n2)cc1
→ 0.72	2.1	22%	.	1.3	6.0	.
- CC1=C(C(=O)N(C)C)CC(CC(=O)NCc2ccco2)C(=O)N1CCC1=CCCCC1 (stereo not given)
→ .	.	.	i	-4.2	.	1.6
- COc1ccc(Cl)cc1N(CC(=O)NCCSc1ccccn1)S(=O)(=O)c1ccccc1
→ 0.7	5.7	2%	i	-1.6	0.5	-6.7
- CC1Cc2ccccc2N1C(=O)c1cc2cccnc2n(C)c1=O (stereo not given)
→ 0.7	5.8	0%	i	-0.9	-2.6	9.9
- Cc1cc(C)cc(NC(=S)Nc2cccc3cnccc23)c1
→ 0.66	4.0	1%	i	2.1	.	4.7
- CCCOc1ccc(N2C(=O)CC(NCCc3ccc(S(N)(=O)=O)cc3)C2=O)cc1 (stereo not given)
→ 0.67	-0.2	3%	.	-2.1	1.1	.
- COc1ccc(NC(=O)c2ccc(COc3ccc(C)cc3)o2)cc1
→ 0.69	-0.1	.	i	-3.6	-0.7	0.3
- COc1ccc(S(=O)(=O)N2CCCN(CC(=O)Nc3ccc(OC)c(Cl)c3)CC2)cc1
→ 0.74	2.8	-1%	.	2.8	-4.9	.
- Cc1ccccc1NC(=S)NCC1CCC(CNC(=S)Nc2ccccc2C)CC1 (stereo not given)
→ 0.64	2.6	.	i	3.9	-1.7	-2.6
